High-throughput results (PubChem BioAssay)
HNF4A DNA FP: change in binding of human HNF4 alpha to DNA | P41235 | HNF4a-FITC DNA binding, fluorescence polarization, 1 h | activity change, % at 10 µM | 360,000 compounds, 0.3% hits; in the data active = activity change above about 30%, passing the limit was not always enough;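 note: controls were the assay level and a saturating level of protein; the project sought stronger binding though the title names inhibitors; some compounds called inactive have numbers as strong as hits; positive values seem to mean higher polarization but the record does not say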
Target sequence (P41235 whole entry, looked up): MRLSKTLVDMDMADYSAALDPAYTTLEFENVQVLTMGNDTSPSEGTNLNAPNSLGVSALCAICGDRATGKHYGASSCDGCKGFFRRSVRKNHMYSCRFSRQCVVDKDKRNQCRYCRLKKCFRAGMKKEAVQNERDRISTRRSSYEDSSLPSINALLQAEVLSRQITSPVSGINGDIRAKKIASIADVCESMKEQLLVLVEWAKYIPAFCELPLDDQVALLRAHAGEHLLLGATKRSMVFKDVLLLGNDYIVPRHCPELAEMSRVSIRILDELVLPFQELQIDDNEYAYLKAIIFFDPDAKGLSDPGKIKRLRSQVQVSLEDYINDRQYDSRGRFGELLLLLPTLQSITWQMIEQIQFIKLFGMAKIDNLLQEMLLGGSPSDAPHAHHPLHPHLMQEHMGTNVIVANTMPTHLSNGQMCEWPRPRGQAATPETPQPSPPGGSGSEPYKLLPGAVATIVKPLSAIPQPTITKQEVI
MLL AF4-AF9 inh: blocks AF4 peptide binding to human AF9; P42568; AlphaScreen, biotin-AF4 peptide binding to FLAG-AF9; inhibition, % at 10 µM; 350,000 compounds, 0.47% hits; AID 651704;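 active = every replicate reaching a set inhibition limit, whatever the replicate mean, cut at about 25% in these data; inconclusive = mean inhibition reaches that limit but some replicates miss it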;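 note: 0% = plate neutral control median and 100% = total signal loss; the record names both 10 and 1 µM as test concentration; the first replicate is given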
UCH37 inh: inhibitors of human deubiquitinating enzyme UCH37. Q9Y5K5. purified proteasome/UCH37, Ub-AMC cleavage fluorescence. inhibition, % (concentration not given with the values). 330,000 compounds, 0.33% hits. AID 588478;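 active = mean of two replicates above 20%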;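 note: 0% = compound-free wells with enzyme and 100% = wells lacking proteasome; stock transfer was 100 nL into about 20 µL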
Target sequence (Q9Y5K5 whole entry, looked up): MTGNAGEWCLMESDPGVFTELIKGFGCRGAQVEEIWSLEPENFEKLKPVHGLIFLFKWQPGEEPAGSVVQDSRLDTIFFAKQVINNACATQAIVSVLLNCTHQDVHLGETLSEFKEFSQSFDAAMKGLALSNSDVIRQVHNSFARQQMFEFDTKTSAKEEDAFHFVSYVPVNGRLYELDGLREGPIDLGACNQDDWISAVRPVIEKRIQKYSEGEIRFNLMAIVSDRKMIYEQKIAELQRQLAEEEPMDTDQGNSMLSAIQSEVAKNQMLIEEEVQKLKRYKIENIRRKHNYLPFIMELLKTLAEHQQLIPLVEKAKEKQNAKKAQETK
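Test system – human UCH37 enzyme supplied as purified proteasome complex · Incubation – 30 min preincubation with enzyme, 25 min cleavage at room temperature · Detection – AMC fluorescence from Ub-AMC cleavage, excitation 355 nm, emission 460 nm · Benchmarks – no-proteasome wells (full inhibition) and compound-free wells (no inhibition)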
Vif A3G: HIV-1 Vif–A3G interaction blockers – biochemical, TR-FRET, GST-Vif 1-94, biotin-A3G peptide, dose response retest, primary screen (AID 1117319); inhibition, %, or IC50 in µM where a hit was titrated; TR-FRET GST-Vif / biotin-A3G peptide binding; higher % means a stronger effect; test concentration not given here; strong numbers were not always called active; 260,000 compounds, 0.57% hits;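 active = above the screen mean plus three standard deviations and confirmed in dose response; inconclusive = results disagree or hit not tested in dose response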;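 note: Vif residues 1-94 fused to GST binding biotinylated APOBEC3G peptide 110-148; 0% = full assay without inhibitor and 100% = GST in place of GST-Vif; retest series ran down from 100 µM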
RanGTP-Impb inh: inhibitors of RanGTP-importin-beta interaction, primary screen, biochemical, FRET, CFP-Ran, YFP-importin-beta, homogeneous | cell-free CFP-Ran/YFP-importin-beta FRET ratio | inhibition, % (test concentration not listed) | 300,000 compounds, 1.1% hits;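 active = most replicates above 15%; inconclusive = exactly half above 15%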;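 note: 0% = DMSO wells and 100% = Ran loaded with GDP instead of GTP; wells of about 40 µL received 100 nL stock; the first replicate is given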
Ecoli growth: inhibitors of Escherichia coli growth; OD600 absorbance (concentration not given with the values); 330,000 compounds, 0.21% hits; OD600, 23 h; stronger effect = lower value; AID 1053175;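 active = OD600 absorbance below the run mean of sample wells minus 3.6 SD, in any replicate, cut at about 0.56 in these data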;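 note: stock transfer was 300 nL into about 60 µL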
FGF22 binding: binders of recombinant human FGF22 by thermal shift; Q9HCT0; SYPRO orange fluorescence; percent of sucrose octasulfate shift, DMSO zero; calls only at 9.99 µM; 340,000 compounds, 1.5% hits; AID 651658;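 active = melting point raised past a set limit in the mean and every replicate; inconclusive = no clear call; three in four hits are not shown here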
Target sequence (Q9HCT0 whole entry, looked up): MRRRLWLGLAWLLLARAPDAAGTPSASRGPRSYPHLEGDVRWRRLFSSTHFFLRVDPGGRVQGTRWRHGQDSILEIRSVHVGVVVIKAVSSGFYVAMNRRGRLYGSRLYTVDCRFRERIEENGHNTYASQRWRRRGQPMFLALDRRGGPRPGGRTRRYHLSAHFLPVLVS
Starred values were filed as active, the others as inactive; i = inactive; ? = inconclusive; . = no result given; & = joins results of further samples.

SMILES	HNF4A DNA FP	MLL AF4-AF9 inh	UCH37 inh	Vif A3G	RanGTP-Impb inh	Ecoli growth	FGF22 binding
COC(=O)C1=CN(CC2CCCO2)C=C(C(=O)OC)C1c1cccc(O)c1 (stereo not drawn)	0.2	-1.2	i	-6%	28*	0.7	i
CCOc1ccc(C2CC(c3ccc(CC)cc3)Nc3nc(N)nn32)cc1 (stereo not drawn)	3.6	-2.2	6.7	0%	4.1	0.75	i
O=[N+]([O-])c1cccc(Nc2c([N+](=O)[O-])ccc3nonc23)c1	0.0	-0.3	3.9	-10%	-5.5	0.62	i
CC(=O)c1cccc(NC(=O)Cn2cnc(S(=O)(=O)N3CCCCC3)c2)c1	-2.2	-0.6	-0.7	-6%	4.0	0.7	i
CN1CCN(C(=O)OCCOCCOC(=O)N2CCN(C)CC2)CC1	-5.4	-4.8	2.6	-6%	.	0.69	i
CC(C)(C)n1nc2c(c1NC(=O)c1ccccc1C(F)(F)F)CS(=O)(=O)C2	2.7	-3.2	2.6	0%	-4.5	0.7	i
COc1cccc(C(C(=O)NC2CCCC2)N(C(=O)c2ccco2)c2ccccc2F)c1OC (stereo not drawn)	-2.1	4.3	1.7	-4%	1.1	0.72	i
COc1ccc(NC(=O)C(c2ccc(C#N)cc2)n2c(=O)c(-c3cc4ccccc4[nH]3)nc3ccccc32)cc1 (stereo not drawn)	21	-16	.	.	.	.	i
Cc1cc(NC(=O)c2cc(S(=O)(=O)N3CCCCC3)ccc2C)n(-c2ccccn2)n1	-0.1	.	-0.3	-11%	.	0.74	.
CC(=O)c1ccc(S(=O)(=O)NCC(=O)NC(c2nc3ccccc3[nH]2)C(C)C)cc1 (stereo not drawn)	-2.5	0.9	-5.6	.	.	0.64	i
O=C(CN(C1CCCCC1)S(=O)(=O)c1ccc(Cl)cc1)NCc1ccncc1	-0.5	-2.6	-1.3	1%	-4.3	0.72	.
Cc1cccc(NC(=O)c2cc([N+](=O)[O-])ccc2N2CCN(C)CC2)c1	3.0	2.9	10	3%	-5.7	0.59	i
COc1cccc(N=C2SC(CC(=O)Nc3ccccc3)C(=O)N2Cc2ccccn2)c1 (stereo not drawn)	5.6	4.2	5.9	?	2.4	0.72	.
CCOc1ccc(/C=C(\C#N)C(=O)Nc2ccccn2)cc1	3.4	1.4	-0.9	.	1.8	0.67	i
COc1ccc(C(=O)N/N=C\c2ccoc2)cc1	-3.2	-2.9	.	10%	2.9	.	i
CCCOc1ccc(C2C(C#N)=C(N)Oc3nc[nH]c(=O)c32)cc1OC (stereo not drawn)	-5.4	.	7.1	0%	2.4	0.69	.
Cc1nnc(OCC(=O)NCCC2=CCCCC2)c2ccccc12	-0.3	.	5.6	0%	1.4	0.67	.
COc1ccc2c(CC(=O)OCC(=O)N3CCc4ccccc43)coc2c1	-2.1	.	-1.2	31%	4.7	0.67	.
CC1CCN(CCCCOc2cccc(Br)c2)CC1	-2.8	.	0.1	0%	0.1	0.64	.
OCCN1CCN(c2ncnc3c2ncn3[C@H]2CN(Cc3ccc(-c4ccccc4)cc3)C[C@@H](CO)O2)CC1	3.4	3.7	.	.	.	.	i
Cc1ccccc1NC(=O)NNC(=O)OC(C)(C)C	3.3	-15	4.3	12%	3.7	0.69	i
O=C(NCc1ccc(Cl)cc1)c1ccc(CNc2c(N3CCCC3)c(=O)c2=O)cc1	-0.7	1.7	7.3	-3%	-2.7	0.7	i
O=C(CSc1nc2nc3c(cc2c(=O)n1-c1ccccc1)CCCC3)Nc1cccc2ccccc12	5.5	-56	-1.3	.	1.5	0.71	i
COc1ccc(NS(=O)(=O)c2ccc(N/N=C(\C)c3ccncc3)c([N+](=O)[O-])c2)cc1	0.5	1.9	.	9%	0.6	.	i
CN1CCn2c1nc(N1CCCCC1)nc2=O	-1.4	.	1.1	3%	-5.2	0.7	.
O=C(O)c1cccc(Cn2cccn2)c1	2.2	.	0.4	-5%	-1.9	0.71	.
COc1nc(Nc2cccc([N+](=O)[O-])c2)nc(OC)n1	-2.5	-0.7	4.6	6%	4.0	0.68	i
CCOC(=O)c1c(NC(=O)CSc2nnc(-c3ccccc3)n2CC)sc(C(C)=O)c1C	4.1	.	3.5	29%&-6%	?	0.73	.
COc1cccc(-c2nnc(NC(=O)c3ccc4ncsc4c3)o2)c1	-2.2	3.0	0.9	.	-0.2	0.63	i
Cc1ccc(S(=O)(=O)NCCC(=O)N2CCN(Cc3ccccc3)CC2)cc1	2.4	.	0.3	9%	-3.3	0.65	.
CCN(CC)C(=O)COc1coc(CN2CCN(Cc3ccccc3)CC2)cc1=O	-2.6	-0.1	6.8	.	1.9	0.72	i
COc1ccc(S(=O)(=O)N2CCc3ccccc32)cc1C(=O)OCc1c(C)noc1C	-4.9	.	-1.4	-4%	-1.3	0.67	.
O=C(CNC(=O)C1COc2ccccc2O1)N/N=C/c1ccc([N+](=O)[O-])cc1 (stereo not drawn)	1.5	-3.6	.	.	1.1	.	i
N#C/C(=C\c1ccccc1OCC(=O)O)c1nc2ccccc2[nH]1	1.7	2.3	8.7	3%	3.0	0.68	i
Cc1nn(C(C)C(=O)NCc2cccs2)c(=O)c2nn(-c3ccccc3)c(C)c12 (stereo not drawn)	5.3	-1.2	-1.2	.	1.1	0.72	i
Cc1ccc(OCC(=O)N2CCOCC2)cc1C	-1.6	0.6	1.4	-11%	3.2	0.72	i
CCOC(=O)C1(CC2CC2)CCN(Cc2cn[nH]c2-c2ccccc2)CC1	-2.7	-0.7	0.0	1%	?	0.65	.
CC(=O)c1ccc(S(=O)(=O)N2CCCC(N(C)CCc3ccccn3)C2)cc1 (stereo not drawn)	1.7	0.2	0.0	.	1.5	0.69	i
O=C(COC(=O)COc1ccccc1)NCc1ccc2c(c1)OCO2	2.1	-1.0	4.3	-2%	.	0.71	i
Cc1nc(SCC(=O)NCCc2ccccc2)c2oc3ccccc3c2n1	-1.4	.	3.0	-3%	2.2	0.65	.

Pulled by compound from above, 3 records:
SMILES	HNF4A DNA FP	MLL AF4-AF9 inh	UCH37 inh	Vif A3G	RanGTP-Impb inh	Ecoli growth	FGF22 binding
Cc1nn(C(C)C(=O)NCc2cccs2)c(=O)c2nn(-c3ccccc3)c(C)c12 (stereo not drawn)	5.3	-1.2	-1.2	.	1.1	0.72	i
Cc1ccc(S(=O)(=O)NCCC(=O)N2CCN(Cc3ccccc3)CC2)cc1	2.4	.	0.3	9%	-3.3	0.65	.
CC(=O)c1ccc(S(=O)(=O)N2CCCC(N(C)CCc3ccccn3)C2)cc1 (stereo not drawn)	1.7	0.2	0.0	.	1.5	0.69	i

Other compounds
SMILES	HNF4A DNA FP	MLL AF4-AF9 inh	UCH37 inh	Vif A3G	RanGTP-Impb inh	Ecoli growth	FGF22 binding
COc1cc(CC(=O)Nc2c(-c3ccccc3)[nH][nH]c2=O)cc(OC)c1	-1.6	-0.7	.	.	.	.	i
COc1ccccc1Nc1ncc(C(=O)Nc2ccc(OC)c(OC)c2)c2ccccc12	-3.5	.	-267	6%	1.4	0.64	.
COc1ccc(C(=O)NCCN2CCOCC2)c(OC)c1OC	0.6	-1.9	0.3	-4%	-2.3	0.65	i
COc1ccc(OC)c(CN2CCN(C(=O)c3cccc(S(=O)(=O)Nc4ccccc4OC)c3)CC2)c1	-0.3	8.7	1.3	-12%	2.9	0.68	i
Cc1ccc(N2CC(C(=O)Nc3nnc(SCC(=O)Nc4nc(C)cs4)s3)CC2=O)cc1 (stereo not drawn)	2.1	1.5	.	-4%	3.6	.	i
COCCCNC(=O)CN(c1cc(Cl)ccc1OC)S(C)(=O)=O	0.3	-0.8	2.4	-9%	?	0.68	i
COc1ccc(CCC(=O)OCC(=O)Nc2ccccc2OC(F)F)cc1OC	-4.1	-0.9	0.6	-3%	-0.1	0.69	i
CCn1c(SCC(=O)OC)nnc1-c1ccncc1	-0.8	.	4.2	.	-3.6	0.74	.
CCOC(=O)c1ccccc1NC(=O)CSc1nncn1C	6.4	-3.9	-0.5	-1%	5.2	0.65	i
O=C(O)CCC(=O)Nc1ccccc1C(=O)Nc1ccccc1	0.2	.	0.9	10%	-3.4	0.73	.
CC(=O)N1c2ccc(S(=O)(=O)N3CCCCC3)cc2CC1C(=O)Nc1ccc(F)cc1C (stereo not drawn)	-2.6	1.5	6.1	.	-1.0	0.69	i
CCN(C(=O)Cc1ccccc1OC)c1nnc(-c2ccncc2)s1	-2.9	.	0.4	-17%	0.1	0.68	.
N#CCCN(C(=O)COC(=O)C1=COCCO1)c1ccc(F)cc1	0.9	-6.0	0.1	-2%	0.1	0.69	i
CCCCN(CC)C(=S)Nc1ccc2nc3n(c(=O)c2c1)CCCCC3	4.2	.	1.4	-7%	-1.7	0.63	.
COc1ccc([C@H]2CC(=O)C[C@@H](CCn3cc(C(C)C)nn3)O2)cc1	-1.0	0.6	.	.	.	.	i
COc1cccc(N2CCN(C(c3ccccn3)c3nnnn3C(C)(C)C)CC2)c1 (stereo not drawn)	-2.1	.	0.8	4%	3.9	0.76	.
COC(=O)c1cccc(NC(=O)Cn2cnc3c2c(=O)n(C)c(=O)n3C)c1	3.0	.	1.4	.	0.2	0.72	.
Cc1ccccc1NC(=O)CSCCO	2.6	.	2.2	4%	0.6	0.69	.
Cc1cc(C)c(S(=O)(=O)NCc2nc3nc(C)cc(C)n3n2)c(C)c1	1.7	1.5	6.2	.	?	0.69	i
COc1ccc(NS(=O)(=O)Cc2ccccc2)cc1OC	1.6	.	2.7	?	2.7	0.72	.
O=C(CCc1nc(-c2ccccc2F)no1)NC1CCCCC1	4.7	.	2.0	-1%	-3.6	0.69	.
Cc1ccccc1NC(=O)CSCC(=O)Nc1ccccc1C	6.0	.	1.8	3%	3.5	0.72	.
O=S(=O)(N/N=C\c1ccc2c(c1)OCO2)c1ccccc1	-2.8	-3.6	.	-1%	-13	.	i
CC(C)OCCCNC(=O)C1CCC(CNS(=O)(=O)c2ccccc2)CC1 (stereo not drawn)	-1.6	.	2.2	25%	0.3	0.69	.
CC(C)NC(=O)c1ccc(CSCc2ccccc2Cl)o1	2.5	2.9	5.0	3%	-3.1	0.68	i
O=C(Cc1cccc(NC(=O)C2CCN(C(=O)CCc3ccccc3)CC2)c1)Nc1cccc(C(=O)N2CCCCC2)c1	-2.4	1.7	2.3	-2%	.	0.68	i
CCn1c(CSc2nc3ccccc3s2)nc2ccccc21	-0.1	.	-79	-1%	3.5	0.69	.
CCOC(=O)c1nn(-c2ccccc2C)c(=O)c2c(N)scc12	-1.6	-5.0	-1.1	2%	5.1	0.7	i
COc1cc(NC(=O)COC(=O)CC(C)(C)C)c(C)cc1[N+](=O)[O-]	1.1	4.8	5.3	.	-5.6	0.69	i
CNC(=O)c1[nH]cnc1C(=O)Nc1ccc(Cl)cc1	-0.1	-7.7	0.1	?	10	0.66	i
N#CSCC(=O)c1cccc2ccccc12	0.3	1.5	20	-5%	.	0.69	i
C[C@H]1CN=C(N(C)C)N1CC1CCCC1	-1.8	4.3	0.9	.	.	0.72	i
O=C(Nn1cnnc1)C(Sc1ccccc1)c1ccccc1 (stereo not drawn)	2.1	.	2.9	7%	-2.5	0.69	.
COc1ccc(C(=O)NC(C)c2nccs2)cc1OC1CCN(C(C)C)CC1 (stereo not drawn)	1.3	1.6	-1.2	-3%	2.8	0.71	i
CCCCCCSc1nsc(NC(C)=O)n1	-1.7	.	0.2	-3%	1.8	0.71	.

Rewritten with the structure last: entries from further up.
HNF4A DNA FP	MLL AF4-AF9 inh	UCH37 inh	Vif A3G	RanGTP-Impb inh	Ecoli growth	FGF22 binding	Compound
6.0	.	1.8	3%	3.5	0.72	.	Cc1ccccc1NC(=O)CSCC(=O)Nc1ccccc1C
-2.8	-3.6	.	-1%	-13	.	i	O=S(=O)(N/N=C\c1ccc2c(c1)OCO2)c1ccccc1
-1.6	.	2.2	25%	0.3	0.69	.	CC(C)OCCCNC(=O)C1CCC(CNS(=O)(=O)c2ccccc2)CC1 (stereo not drawn)

A portion of the library; count on the stated rates, not on these rows.
